Mtb bLac sens: beta-lactam sensitization of Mtb H37Rv, H37Rv. M. tuberculosis H37Rv growth with meropenem, percent inhibition; hits of this screen are not shown here. inhibition, % at 25 µM. 330,000 compounds, 0.27% hits. AID 434955, 2010;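 active means about 74% or more and at least 40 points above the plate without the antibiotic, then above 30% in a dose series; inconclusive means first-round hits that could not be retested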;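 further: growth measured after seven days incubation then overnight dye step; 0% = bacteria only wells and 100% = bacteria with antibiotic; twin plates without the antibiotic show which effects depend on it; some results filed as inactive read as strong as hits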
The depositor's hits bear a star; ? = inconclusive.

smiles | Mtb bLac sens
N#Cc1ccccc1S(=O)(=O)N1CCN(C(=O)c2cn(-c3ccccc3)nc2-c2cccnc2)CC1 | -9
Cc1nc(SCC(=O)Nc2cccc(S(=O)(=O)N3CCOCC3)c2)nc(C)c1C | 6
Cc1cc(=O)[nH]c(SCC(=O)N2CCCC2)n1 | -2
O=C1CCC(C(=O)OCC(=O)Nc2cc(Cl)ccc2F)=NN1 | -4
CCOc1cc(-c2noc(CCCC(=O)NC3CCCCC3)n2)ccc1OC | -1
CCC(=O)c1ccc(OCC(=O)NC2CCCC2)cc1 | 7
O=C(NCc1cccc(C(F)(F)F)c1)N1CCN(C(=O)c2ccccc2)CC1 | -6
CCN1C(=O)[C@@H]2[C@@H](c3ccc(-c4ccc(F)cc4)c(OC)c3)N3CCC[C@@]3(C(=O)OC)[C@@H]2C1=O | -6
COc1ccc(CN([C@H](CO)CC(C)C)S(=O)(=O)N(Cc2ccccc2)[C@H](CO)CC(C)C)cc1 | 16
CCCCNc1c(-c2cccc(SC(C)CC)c2)nc2ccc(Cl)cn12 (stereo not given) | 6

Reprinted from the part before: 2 compounds, followed by the next part.
smiles | Mtb bLac sens
COc1ccc(CN([C@H](CO)CC(C)C)S(=O)(=O)N(Cc2ccccc2)[C@H](CO)CC(C)C)cc1 | 16
CCCCNc1c(-c2cccc(SC(C)CC)c2)nc2ccc(Cl)cn12 (stereo not given) | 6
CCCc1cc(=O)[nH]c(SCC(=O)N(C)C2CCCCC2)n1 | -3
Cc1cc(NC(=O)CSCC(=O)Nc2cc(Cl)ccc2N2CCN(C)CC2)no1 | -3
COc1ccc(NC(=O)c2ccc(NC(=O)c3nc4nccc(C)n4n3)cc2)cc1 | -2
Cc1cccc(OCC(=O)NNC(=O)c2ccccc2OCc2c(C)noc2C)c1 | -1
C[C@@H]1CN([C@H](C)CO)C(=O)c2cccc(NC(=O)Nc3ccc(C(F)(F)F)cc3)c2O[C@H]1CN(C)S(=O)(=O)c1cccs1 | 92
CCCCN(C(=O)CSc1nn(-c2ccc(F)cc2)c(=S)s1)c1c(N)n(CCCC)c(=O)[nH]c1=O | -9
CCC1OC(=O)C(C)C(OC2C[C@@](C)(OC)C(O)C(C)O2)C(C)C(O[C@@H]2OC(C)CC(N(C)C)C2O)[C@](C)(O)CC(C)C(=NOCOCCOC)C(C)C(O)[C@]1(C)O (stereo not given in full) | 71
COc1ccc(/C=N/NC(=O)C(=O)N2CCCCCC2)cc1O | ?
Cc1ccc(C2(c3ccccc3)NC(=O)N(CC(=O)N3CC(=O)Nc4ccccc43)C2=O)cc1C (stereo not given) | 71
C[C@H]1CN([C@@H](C)CO)C(=O)Cc2cc(NS(=O)(=O)c3ccc(Cl)cc3)ccc2O[C@@H]1CN(C)C(=O)Nc1cccc2ccccc12 | 5

Following part:
smiles | Mtb bLac sens
Cc1cc(C)c(CN2CCN(C(=O)Cn3ccc(NC(=O)OCc4ccccc4)nc3=O)CC2)c(C)c1 | 27
C[n+]1cccc(C(=O)[O-])c1 | -4
COc1ccc2cc(C3=CC(=O)C[C@H](c4ccc5c(c4)OCO5)C3)ccc2c1 | 88
Cc1cc(NS(=O)(=O)c2ccc(NC(=O)/C=C/c3ccccc3)cc2)nc(C)n1 | 65
O=C(NCCOc1ccc(Cl)cc1)C1CC(=O)N(c2ccc3c(c2)OCCO3)C1 (stereo not given) | -1
OC[C@H]1O[C@H](OCCc2ccc(O)cc2)[C@H](O)[C@@H](O)[C@@H]1O | -4
CC(C)CN(C(=O)c1ccc(F)cc1F)c1c(N)n(CC(C)C)c(=O)[nH]c1=O | -6
CCCCC[C@@H]1C=C(C(=O)O)[C@H](c2ccc(Cl)cc2)N1S(=O)(=O)c1ccc(C)cc1 | -2
CC1(C)NC(=O)N(CC(=O)N2CCN(S(=O)(=O)c3ccccc3C(F)(F)F)CC2)C1=O | -6
Cc1cccc(N2CCN(C(=O)c3ccc(NC(=O)CC4SC(N5CCCC5)=NC4=O)cc3)CC2)c1C (stereo not given) | -8

Continued.
smiles | Mtb bLac sens
O=C(CCC(=O)Nc1ccccc1Cl)NNC(=O)COc1ccc([N+](=O)[O-])cc1 | -6
CC1CCN(C(=O)c2nc[nH]c2C(=O)O[C@H](C)c2ccccc2)CC1 | -8
OCC[C@H]1C[C@H](O)[C@@H](O)[C@@]2(Cc3ccccc3CCO2)O1 | -12
Cn1ncc(Br)c1C(=O)N1CCCC1 | ?
Cc1nn(-c2ccccc2)c2nc(C(F)F)cc(C(F)F)c12 | 0
O=C(CNC(=O)c1ccc(Cl)cc1)OCn1nnc2ccccc2c1=O | 3
CN(Cc1cccs1)S(=O)(=O)c1ccc(Cl)cc1F | 2
CC1CCN(S(=O)(=O)c2ccc(Cl)s2)CC1 | 1
CCc1ccc(NC(=O)COC(=O)/C=C/c2ccco2)cc1 | 16
O=C(OCC(=O)N1CCc2ccccc2C1)c1c(F)cccc1Cl | -7

(list continues)
smiles | Mtb bLac sens
O=C(CN1C(=O)NC2(CCCCCC2)C1=O)Nc1ccc([N+](=O)[O-])cc1 | 71
COc1ccc([C@@H]2CC(=O)c3c(O)cc(O)cc3O2)cc1O | 1
CN(C(=O)c1ccc(NC(=O)Cc2cccc(NC(=O)C3CCCN(C(=O)C4CC4)C3)c2)cc1)C1CCCC1 (stereo not given) | 9
CCCCOc1ccc(C(=O)NCC(=O)NNC(=O)c2ccco2)cc1 | -10
O=C1CN(C(=O)COC(=O)c2ccco2)c2ccccc2N1 | -6
Cc1ccc2nc(-c3ccccc3)cc(C(=O)N3CCN(S(=O)(=O)c4c(C)noc4C)CC3)c2c1 | 1
COc1cccc(NC(=O)CN(C)CC(=O)NCC(=O)Nc2ccc(F)cc2)c1 | -3
Cn1c(=O)[nH]c(=O)c2c1nc(NC1CCCC1)n2Cc1ccccc1 | 0
CCc1ccc(N(CC(=O)NCc2ccc3c(c2)OCO3)C(=O)c2csnn2)cc1 | 0
CSCCC(NS(=O)(=O)c1ccccc1F)C(=O)NCC(c1ccco1)N(C)C (stereo not given) | -5

The final five compounds of the part before lead into the next:
smiles | Mtb bLac sens
Cc1ccc2nc(-c3ccccc3)cc(C(=O)N3CCN(S(=O)(=O)c4c(C)noc4C)CC3)c2c1 | 1
COc1cccc(NC(=O)CN(C)CC(=O)NCC(=O)Nc2ccc(F)cc2)c1 | -3
Cn1c(=O)[nH]c(=O)c2c1nc(NC1CCCC1)n2Cc1ccccc1 | 0
CCc1ccc(N(CC(=O)NCc2ccc3c(c2)OCO3)C(=O)c2csnn2)cc1 | 0
CSCCC(NS(=O)(=O)c1ccccc1F)C(=O)NCC(c1ccco1)N(C)C (stereo not given) | -5
Cc1cc(C)n2nc(C(=O)OCC(=O)Nc3ccc4c(c3)OCCO4)nc2n1 | -6
COc1ccc(CCNc2cc(N3CCN(C(=O)c4ccccc4OC)CC3)ccc2[N+](=O)[O-])cc1OC | -5
COc1cc2c(cc1OC)[C@H]1C(=O)c3ccc4c(c3O[C@H]1CO2)C[C@@H](C(C)(C)O)O4 | 2
COc1ccc(OCC(=O)Nc2cccc(S(=O)(=O)N(C)c3ccccc3)c2)c([N+](=O)[O-])c1 | 1
BrCC(Br)(Br)Br | 1
O=C(COC(=O)COc1ccc(Cl)cc1)NC1CCS(=O)(=O)C1 (stereo not given) | -5
Cn1nnnc1SCC(=O)Nc1ccc(C(=O)N2CCN(Cc3ccccc3F)CC2)cc1 | 3
COc1ccc(CCNC(=O)c2ccccc2OCc2c(C)noc2C)cc1 | -5
CCOC(=O)C1CCCN(C(=S)Nc2ccc(S(=O)(=O)N3CCOCC3)cc2)C1 (stereo not given) | -4
CS(=O)(=O)N1CCc2cc(C(=O)Nc3ccccc3Cl)ccc21 | -11

Next compounds
smiles | Mtb bLac sens
Cc1cc(C)c(NC(=O)CN(C)CC(=O)N(C)CC(=O)Nc2c(Cl)cccc2Cl)c(C)c1 | 1
C[C@@]12C(=O)Nc3ccc(F)cc3C(=O)N1[C@H]1c3cc(Cl)ccc3OC[C@@H]1[C@@H]2c1ccccc1 | 9
CC(=O)c1ccc(S(=O)(=O)N(C)CC(=O)NCc2ccco2)cc1 | -7
O=C(O)c1cc(S(=O)(=O)NCCOc2ccccc2)ccc1Cl | -1
CN(C)C(CNC(=O)c1ccc2nccnc2c1)c1ccco1 (stereo not given) | -2
Nc1nc(SCC(=O)Nc2ccc(Cl)c([N+](=O)[O-])c2)n[nH]1 | -2
CC(=O)c1ccc(NCC(=O)N2CCN(S(=O)(=O)c3ccccc3)CC2)cc1 | -2
O=C(COC(=O)c1cc([N+](=O)[O-])ccc1N1CCOCC1)Nc1cc(F)ccc1F | 18
O=C(Cn1[nH]c(=O)c2ccccc2c1=O)OCC(=O)c1ccccc1 | -3
CC(NC(=O)COC(=O)c1cccc(S(=O)(=O)N2CCCC2)c1)c1ccccc1 (stereo not given) | -11

(next part)
smiles | Mtb bLac sens
CCN(C[C@H]1N[C@@](Cc2ccccc2)(C(=O)OC)[C@H]2C(=O)N(C)C(=O)[C@@H]12)S(=O)(=O)c1ccc(-c2ccccc2)cc1 | 8
Cc1cc2occ(CC(=O)N(C)CC(=O)Nc3ccccc3C(F)(F)F)c2cc1C | -5
COC(=O)C1=C(c2ccc(OC)c(OC)c2)C[C@@H]2CC[C@H]1N2C(=O)NCCOc1ccccc1 | -4
CCC1(CC)NC(=O)N(CC(=O)OCc2nc3cc(C(=O)OC)ccc3c(=O)[nH]2)C1=O | 4
O=C1N[C@@H](Cc2c[nH]c3ccccc23)COC(=O)[C@@H](Cc2ccc(F)cc2)CC/C=C/C[C@@H]1CC(=O)N(CCO)Cc1ccccc1 | 0
CC(C)(C)c1ccc(C(=O)Nc2cccc(S(=O)(=O)NC3=NCCC3)c2)cc1 | 5
CCC/C=C1/CCCOC(C(=O)NCc2ccc(C)o2)(C(F)(F)F)C1 (stereo not given) | -7
O=C(Cc1ccccc1F)Nc1cc(S(=O)(=O)N2CCOCC2)ccc1N1CCOCC1 | -10
COc1ccc(C(=O)CSc2nc(C)cc(C)n2)cc1C | 2
O=C1NC(Cc2ccccc2)c2nc3ccc(Cl)cc3c(=O)n2-c2ccccc21 (stereo not given) | -1

Continuation:
smiles | Mtb bLac sens
COc1ccc(NC(=O)Nc2cccc3c2O[C@H](CN(C)C(=O)Nc2c(C)noc2C)[C@@H](C)CN([C@H](C)CO)C3=O)cc1 | 7
Cc1cc(Cl)ccc1OCC(=O)OCC(=O)N1CCC(C(N)=O)CC1 | -6
O=C(NCc1cccc(F)c1)c1cccc2c1C(=O)c1ccc(N3CCOCC3)cc1S2(=O)=O | 12
Cc1ccc(S(=O)(=O)N2CCN(C(=O)c3cc4c(s3)CCCC4)CC2)c(C)c1 | 6
COc1ccc(NS(=O)(=O)c2ccc(C(=O)NCC3(N4CCOCC4)CCCCC3)cc2)cc1 | -7
CC(=O)c1ccccc1NC(=O)COC(=O)C1CCCN1S(=O)(=O)c1ccccc1F (stereo not given) | -16
CC(=O)N[C@@H](CC(=O)O)C(=O)O | -6
CSc1ccc(CN(C)CC(=O)Nc2ccccc2C(=O)NC2CC2)cc1 | -4
C[C@H](CO)N1C[C@H](C)[C@@H](CN(C)C(=O)NC2CCCCC2)Oc2ccc(NC(=O)Cn3cnnn3)cc2C1=O | -7
O=C(Cn1nc(Cl)nc1Cl)c1ccccc1 | -15

(more compounds)
smiles | Mtb bLac sens
CC(=O)c1ccc2c(c1)N(CCCN1CCC(CCO)CC1)c1ccccc1S2 | -3
O=C(COC(=O)C1CCCC1)Nc1cccc(Cl)c1Cl | -6
O=C(Nc1ccc(F)cc1)c1ccc2c(c1)S(=O)(=O)N=C1CCCCCN12 | 0
C#CCOCCOCCOCCNc1nc(N2CCN(C(=O)[C@H](CC(N)=O)n3cc([C@@H](N)C(C)C)nn3)CC2)nc(N2CCN(C(=O)[C@H](CC(N)=O)n3cc([C@@H](N)C(C)C)nn3)CC2)n1 | -2
COC(=O)[C@]1(Cc2ccccc2)N[C@H](CN(C)C(=O)c2ccc(F)cc2)[C@@H]2C(=O)N(C)C(=O)[C@@H]21 | -6
CC(C)c1ccc(S(=O)(=O)N2CCN(C(=O)c3ccncc3)CC2)cc1 | -12
CC(C)Cn1c(N)c(C(=O)COC(=O)c2cccn2C)c(=O)n(C)c1=O | -1
COc1ccccc1N(C)S(=O)(=O)c1ccc(C(=O)OCC(=O)Nc2ccc(C(N)=O)cc2)cc1 | -10
CCOc1ccc(NC(=O)C2CC(=O)N(CCc3ccccc3)C2)cc1OC (stereo not given) | -5
O=C1c2ccccc2C(=O)N1CCC#Cc1ccc2cc(CCCO)oc(=O)c2c1 | 0

Next results follow:
smiles | Mtb bLac sens
CCOc1cc(C(=O)Nc2ccc(S(=O)(=O)Nc3cnc4ccccc4n3)cc2)cc(OCC)c1OCC | 24
CCN(C(=O)COC(=O)c1ccc[nH]c1=O)c1cccc2ccccc12 | 4
COCCN1CC(C(=O)NCc2ccccc2-n2ccnc2C)CCC1=O (stereo not given) | -10
C/C(=C/CCC(C)(O)C1CC[C@@]2(C)[C@@H]3CC=C4[C@@H](CC[C@H](O[C@H]5O[C@@H](CO)[C@H](O)[C@@H](O)[C@@H]5O)C4(C)C)[C@]3(C)C(=O)C[C@]12C)CO[C@@H]1O[C@H](CO)[C@@H](O)[C@H](O)[C@H]1O (stereo not given in full) | 1
CCN(CC(=O)Nc1ccccc1C(F)(F)F)C(=O)c1ccc(N2CCCC2=O)cc1 | 7
COc1cc(C)ccc1OC(C)C(=O)Nc1ccc(N2CCCCC2)cc1 (stereo not given) | 0
C#CCOCCOCCOCCNc1nc(N2CCN(C(=O)CCCCCCCCCCNC(=O)[C@H]([C@@H](C)CC)n3cc(CCCCCN)nn3)CC2)nc(N2CCN(C(=O)CCCCCCCCCCNC(=O)[C@@H]([C@H](C)O)n3cc(C)nn3)CC2)n1 | 96
CCCNC(C)(C)COC(=O)c1ccccc1 | 2
Cc1noc(C)c1NC(=O)N(C)C[C@H]1Oc2c(NC(=O)Cc3ccccc3)cccc2C(=O)N([C@H](C)CO)C[C@@H]1C | 7
Cc1ccc(OC(C)C(=O)Nc2ncc(Cl)cc2Cl)c([N+](=O)[O-])n1 (stereo not given) | -8

Screening results from PubChem BioAssay.

Only part of the results is shown (hit frequency here may not be typical).
